Yeast UUG start = yeast start codon fidelity modulation; activity score, % at 18.7 µM; S. cerevisiae UUG-firefly luciferase reporter, luminescence/redox ratio; 0.13% of 350,000 active;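 active = replicate mean at a twofold rise or more, about +100% in these data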;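 note: firefly luciferase made from a UUG start codon reports start codon fidelity; reporter light over untreated wells divided by growth signal over untreated wells; some hits fall short of that in this replicate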
Rce1 inh = inhibitors of yeast Ras-converting enzyme; Q03530; 0.27% of 290,000 active; AID 2563; calls only; yeast membranes, quenched prenylated peptide cleavage fluorescence;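 active = fall in fluorescence gain of 50% or more versus controls, with final raw signal at or below 3038400; inconclusive = same 50% fall but final raw signal above 3038400; inactive = fall in fluorescence gain under 50%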;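 note: plate controls were neutral control wells for no effect and wells lacking membranes for full effect; tested at 10 µM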
Target sequence (Q03530 whole entry, looked up): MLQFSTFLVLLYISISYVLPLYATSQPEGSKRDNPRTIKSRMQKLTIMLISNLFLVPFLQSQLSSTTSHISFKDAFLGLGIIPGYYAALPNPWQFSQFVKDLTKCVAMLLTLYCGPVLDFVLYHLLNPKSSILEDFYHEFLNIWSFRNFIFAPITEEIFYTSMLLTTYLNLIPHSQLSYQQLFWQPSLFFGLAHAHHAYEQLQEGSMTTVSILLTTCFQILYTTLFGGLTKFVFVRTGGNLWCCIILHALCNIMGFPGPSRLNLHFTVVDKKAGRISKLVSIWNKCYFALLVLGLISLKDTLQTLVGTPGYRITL
PABP FP inh = PABP-poly(A) binding inhibition | AID 2014 | inhibition, % at 35 µM | P11940 | 1% of 290,000 active | PABP-poly(A) RNA binding, fluorescence polarization;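 active = 50% or more with normal probe brightness, or confirmed in later tests; inconclusive = above 50% with abnormal brightness, or retests that disagree; inactive = below 50% or failed in later tests; about a fifth of its hits are not listed in these tables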;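 note: calls also rest on retests at 20 µM and on dose response follow-up; controls were probe without protein and protein plus probe with vehicle; some compounds called inactive have numbers as strong as hits; many hits fall short of the cut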
CSC inhib = blocks cancer stem cells; inhibition, % at 7.5 µM; AID 2717; cancer stem cell-like cells viability, luminescence; 1.1% of 300,000 active;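 active = mean at 75% or more and at least half the replicates too; inconclusive = mean and replicates disagree; tested in HMLE shEcad cells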;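 note: 0% = median of negative and 100% = median of positive control wells; the first replicate is given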
eIF4H inh = inhibitors of RNA binding by human eIF4H; Q15056; eIF4H fluorescence polarization binding assay; inhibition, % at 35 µM; 0.94% of 290,000 active; AID 2012;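 active = 50% or more with normal probe brightness, or confirmed in later tests; inconclusive = above 50% with abnormal brightness, or retests that disagree; inactive = below 50% or failed in later tests; about a fifth of its hits are not listed in these tables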;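 note: calls also rest on retests at 20 µM and on dose response follow-up; 0% = protein and probe with vehicle and 100% = probe without protein; strong numbers were not always called active; many hits fall short of the cut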
The depositor's hits bear a star; i = inactive; ? = inconclusive; / = not tested or not shown. The list is partial. The share of hits here may be higher or lower than overall.

SMILES	Yeast UUG start	Rce1 inh	PABP FP inh	CSC inhib	eIF4H inh
CCN1CCN(c2cc(C)c3cc(NC(=O)c4ccccc4F)ccc3n2)CC1	/	/	0	/	7
CCC(C)NC(=O)c1c(N)n(/N=C/c2cccs2)c2nc3ccccc3nc12 (stereo unspecified)	/	/	-6	/	7
CCC(CCC(=O)Nc1nncs1)C(=O)O (stereo unspecified)	/	/	5	/	1
COc1ccc(OC)c(CC(NC(C)=O)C(=O)NC2CCN(c3nc(C)cc(C)c3C#N)CC2)c1 (stereo unspecified)	/	/	-10	/	0
Cc1ccc(CNC(=O)CSc2nc3ccccc3c3nc(C)nn23)cc1	/	/	-5	/	-19
COc1ccc(/C(O)=C2/C(=O)C(=O)N(CCCN(C)C)C2c2ccccc2)cc1Cl (stereo unspecified)	/	/	-3	/	1
N#Cc1c(N)sc(=S)c2c1CCN(Cc1ccccc1)C2	/	/	3	/	?
COc1ccc(CCNC(=O)c2cc3c(=O)n4cccc(C)c4nc3n(Cc3ccncc3)c2=N)cc1	/	/	2	/	10
COC(=O)Nc1ccc(S(=O)(=O)Nc2ccc(C)cc2)cc1	/	/	0	/	-7
Cc1ccc(N2CCCn3c2nc2c3c(=O)n(CC(=O)OCc3ccccc3)c(=O)n2C)cc1C	/	/	-8	/	2
Cc1ccc(CNC(=O)c2cc3c(=O)n4cccc(C)c4nc3n(CC3CCCO3)c2=N)cc1 (stereo unspecified)	/	/	7	/	16
CCOc1cc(-c2nc(-c3cc(OC)c(OC)c(OC)c3)no2)cc(OCC)c1OCC	/	i	/	-7	/
COC/C=C/C1=CC2=CC(=O)C(C)(OC(=O)c3cnc4ccccc4n3)C(=O)C2=CN1CCc1ccccn1 (stereo unspecified)	/	i	/	-12	/
CC(C)=CCc1cc2c(=O)c3c(O)c4c(cc3oc2c(O)c1O)OC(C)C4(C)C (stereo unspecified)	/	i	/	5	/
COC/C=C/C1=CC2=CC(=O)C(C)(OC(=O)c3cccs3)C(=O)C2=CO1 (stereo unspecified)	/	i	/	-6	/
CCOC(=O)N1C2=NC(C(=O)OC)=C(C(=O)OC)[C@@H]3N(Cc4ccccc4)c4ccccc4[C@]23C[C@H]1C(=O)OC	/	i	/	2	/
COC(=O)CCCC1=CC2=CC(=O)C(C)(OC(=O)c3ccco3)C(=O)C2=CO1 (stereo unspecified)	/	i	/	2	/
Cc1ccc[n+](CC(=O)c2ccccc2)c1	/	i	/	-8	/
CC1(OC(=O)c2ccc(Cl)nc2)C(=O)C=C2C=C(c3ccsc3)OC=C2C1=O (stereo unspecified)	/	i	/	-6	/
CN(CC(=O)NC(=O)NCc1ccco1)CC(=O)Nc1ccccc1Cl	/	i	/	-10	/
CN(CC(=O)Nc1ccc(F)c(F)c1F)c1cnccn1	/	i	/	-3	/
C[C@@H]1O[C@@H](OC2C(O)C(OCCc3ccc(O)c(O)c3)OC(CO)C2OC(=O)/C=C/c2ccc(O)c(O)c2)[C@H](O)[C@H](O)[C@H]1O (stereo partly specified)	/	i	/	-1	/
C[C@@H](O)[C@H]1C(=O)N2C(C(=O)O)=C(S[C@@H]3CN[C@H](C(=O)N(C)C)C3)[C@H](C)[C@H]12	/	i	/	-9	/
Cc1nc(NC(=O)c2ccccc2)sc1C1(C)CC(c2ccc(OC(F)(F)F)cc2)=NO1 (stereo unspecified)	/	i	/	33	/
N[C@H]1CONC1=O	/	i	/	-10	/
Next part
SMILES	Yeast UUG start	Rce1 inh	PABP FP inh	CSC inhib	eIF4H inh
CC1Oc2cc3oc4c(O)c5c(cc4c(=O)c3c(O)c2C1(C)C)C=CC(C)(C)O5 (stereo unspecified)	/	i	/	-7	/
CC1(OC(=O)c2ccc(Cl)nc2)C(=O)C=C2C=C(C3CC3)OC=C2C1=O (stereo unspecified)	/	i	/	-6	/
Cc1c(N=c2c(=O)c3ccccc3c2=O)c(=O)n(-c2ccccc2)n1C	/	i	/	-21	/
CS(=O)(=O)N(Cc1nc2sc3c(c2c(=O)[nH]1)CCCC3)C1CCCCC1	/	i	/	-14	/
CC1(OC(=O)c2ccco2)C(=O)C=C2C=C(c3ccc(C#N)cc3)OC=C2C1=O (stereo unspecified)	/	i	/	9	/
COC(C/C=C\C(=O)[C@@H](C)OCc1ccccc1)OC	/	i	/	-17	/
O=C(NN1C(=O)/C(=C/c2cc([N+](=O)[O-])ccc2O)SC1=S)c1ccccc1O	/	i	/	-13	/
Cc1nc(C(=O)NC2CCCCC2)sc1C1(C)CC(c2cccnc2)=NO1 (stereo unspecified)	/	i	/	2	/
COC(=O)c1sc(NC(=O)c2cnccn2)c(C(=O)OC)c1C	/	i	/	0	/
O=C1C(Cc2ccccc2)Nc2ncnc(N3CCc4ccccc4C3)c2N1Cc1ccc(Br)cc1 (stereo unspecified)	/	i	/	51	/
CC(COc1ccccc1Cc1ccccc1)N1CCCCC1 (stereo unspecified)	/	i	/	18	/
O=C1N[C@@H](Cc2cn(S(=O)(=O)c3ccc(F)cc3)c3ccccc23)C(=O)N[C@H]1Cc1ccccc1	/	i	/	1	/
CCN(CC(=O)Nc1c(F)cccc1F)C(=O)c1ccc(C(=O)c2ccccc2)cc1	/	i	/	-2	/
COc1ccc2c(c1)CCNC2Cc1ccc(OC)c(O)c1 (stereo unspecified)	/	i	/	10	/
O=S(=O)(O)Oc1c[nH]c2ccccc12	/	i	/	18	/
CCN1C(=NCc2cc(OC)c(OC)c(OC)c2)N[C@@H](c2ccccc2)[C@H](C(=O)OC)[C@H]1C	/	i	/	1	/
O=C(COC(=O)c1cccc([N+](=O)[O-])c1)c1ccc2c(c1)OCO2	/	i	/	-3	/
O=C(O[C@H]1[C@H](Oc2ccccc2COC(=O)C2(O)C=CCCC2=O)O[C@H](CO)[C@@H](O)[C@@H]1O)c1ccccc1 (stereo partly specified)	/	i	/	5	/
Cn1c(=O)c2c(nc(CN3CCN(c4ccccc4)CC3)n2CCCc2ccccc2)n(C)c1=O	/	i	/	0	/
COC(=O)CCCC1=CC2=CC(=O)C(C)(OC(=O)c3cnc4ccccc4n3)C(=O)C2=CO1 (stereo unspecified)	/	i	/	2	/
CC(C)c1cc(-c2cc(C(=O)Nc3ccccc3)on2)nc(NCC2CC2)n1	/	i	/	14	/
COc1ccc(CN2C(=O)C(Cc3ccccc3)Nc3ncnc(N4CCc5ccccc5C4)c32)cc1 (stereo unspecified)	/	i	/	17	/
CC(C)(C)C(O)/C=C/c1ccc2c(c1)OCO2 (stereo unspecified)	/	i	/	-8	/
CSc1nc(C)cc(-c2cc(C(=O)Nc3ccccc3)on2)n1	/	i	/	-12	/
Nc1ccc(O)c(C(=O)O)c1	/	i	/	0	/
The results go on:
SMILES	Yeast UUG start	Rce1 inh	PABP FP inh	CSC inhib	eIF4H inh
Cc1cc(C)c(C2=CC(c3ccccc3)n3ncnc3N2)cc1C (stereo unspecified)	/	i	/	-6	/
CN1c2ccc(-c3cccc(C#N)c3)cc2[C@@H]2[C@@H](CCN2C(=O)CN2CCOCC2)[C@@H]1CO	6	/	/	/	/
C[C@@H]1CN([C@@H](C)CO)C(=O)c2cc(NC(=O)Nc3ccccc3)ccc2O[C@@H]1CN(C)S(=O)(=O)c1ccc(Cl)cc1	-4	/	/	/	/
COc1ccc(C#Cc2ccc([C@@H]3[C@H]4CN(S(=O)(=O)c5cn(C)cn5)CCCCN4[C@H]3CO)cc2)cc1	3	/	/	/	/
COc1ccc(NC(=O)N(C)C[C@H]2Oc3c(NC(=O)c4cnccn4)cccc3C(=O)N([C@H](C)CO)C[C@@H]2C)cc1	5	/	/	/	/
CO[C@H]1CN(C)C(=O)c2ccc(NC(=O)C3CCOCC3)cc2OC[C@@H](C)N(CC2CC2)C[C@@H]1C	-11	/	/	/	/
CCC(=O)Nc1ccc2c(c1)C(=O)N(C)C[C@H](OC)[C@@H](C)CN(C(=O)NC(C)C)[C@H](C)CO2	-13	/	/	/	/
CN1c2ccc(-c3cccc(F)c3)cc2[C@H]2[C@H](CCN2C(=O)Cc2cccnc2)[C@@H]1CO	-20	/	/	/	/
C/C=C/c1ccc([C@H]2[C@@H](CO)N(C(=O)CC)[C@@H]2CNC(=O)CC)cc1	4	/	/	/	/
O=C(c1cccnc1)N1C[C@H]2[C@@H](c3ccccc31)[C@H](CO)N2C(=O)C1CCOCC1	24	/	/	/	/
COc1cccc(S(=O)(=O)N2CCCCN3[C@H](CO)[C@H](c4ccc(-c5cccnc5)cc4)[C@@H]3C2)c1	1	/	/	/	/
O=C(CC(F)(F)F)N1C[C@@H]2[C@H](c3ccccc31)[C@@H](CO)N2Cc1cccnc1	-11	/	/	/	/
COc1cccc(-c2ccc3c(c2)[C@@H]2[C@@H](CCN2C(=O)CN2CCOCC2)[C@@H](CO)N3)c1	-18	/	/	/	/
COCC(=O)Nc1ccc2c(c1)C(=O)N(C)C[C@H](OC)[C@H](C)CN(C(=O)c1ccccn1)[C@H](C)CO2	-14	/	/	/	/
CN(C)CC#Cc1ccc([C@@H]2[C@H](CO)N3CCCCN(C(=O)Nc4ccc(F)cc4)C[C@@H]23)cc1	17	/	/	/	/
O=C(Nc1ccccc1F)N1CCCCN2[C@H](CO)[C@H](c3ccc(/C=C/c4ccccc4)cc3)[C@@H]2C1	-22	/	/	/	/
COc1ccc(C#Cc2ccc3c(c2)[C@H]2[C@H](CCN2C(=O)c2ccncc2)[C@H](CO)N3)cc1	-14	/	/	/	/
CC(C)NC(=O)N1[C@H](CNC(=O)CN(C)C)[C@@H](c2ccccc2)[C@@H]1CO	-10	/	/	/	/
CNC[C@@H]1Oc2c(NS(=O)(=O)c3c(C)noc3C)cccc2C(=O)N([C@H](C)CO)C[C@@H]1C	4	/	/	/	/
OC[C@H]1[C@@H](c2ccc(C#CC3CC3)cc2)[C@H]2CN(CCC(F)(F)F)CCCCN21	16	/	/	/	/
COc1ccc(CNC(=O)C[C@@H]2C[C@@H]3c4cc(NC(=O)NC5CCCC5)ccc4O[C@@H]3[C@@H](CO)O2)cc1	8	/	/	/	/
C/C=C/c1ccc([C@H]2[C@@H](CNC(=O)NC(C)C)N(C(=O)C3CC3)[C@H]2CO)cc1	-11	/	/	/	/
CCC(=O)NC[C@H]1[C@@H](c2ccc(-c3ccccc3)cc2)[C@H](CO)N1C(=O)C1CC1	-1	/	/	/	/
Cc1noc(C)c1NC(=O)Nc1ccc2c(c1)CC(=O)N([C@H](C)CO)C[C@@H](C)[C@@H](CN(C)C)O2	8	/	/	/	/
CC(=O)N1[C@H](CO)[C@H]2c3ccccc3N(S(=O)(=O)c3ccccc3C)C[C@H]21	-7	/	/	/	/
(list continues)
SMILES	Yeast UUG start	Rce1 inh	PABP FP inh	CSC inhib	eIF4H inh
CCN1[C@@H]2Cn3c(ccc(-c4ccccc4)c3=O)[C@H]1[C@@H](C(=O)NCc1ccccc1)[C@@H]2CO	-1	/	/	/	/
COCC(=O)N(C[C@H]1N[C@H](CO)[C@@H]1c1ccc(-c2ccccc2)cc1)C(C)C	8	/	/	/	/
C[C@@H]1CN([C@@H](C)CO)C(=O)c2cc(NC(=O)c3ccncc3)ccc2O[C@@H]1CN(C)C	-15	/	/	/	/
C[C@@H]1CN([C@@H](C)CO)C(=O)Cc2cc(NC(=O)Cc3cn(C)c4ccccc34)ccc2O[C@H]1CN(C)Cc1ccncc1	-9	/	/	/	/
COc1ccc(C#Cc2ccc([C@H]3[C@H](CO)N4CCCCN(C(=O)Nc5ccccc5)C[C@@H]34)cc2)cc1	4	/	/	/	/
CC(=O)N1[C@@H](CO)[C@@H](c2ccccc2)[C@@H]1CN(CC(C)C)C(=O)c1ccccn1	-7	/	/	/	/
CN1C(=O)c2cc(NC(=O)c3cccc(F)c3)ccc2OC[C@@H]2O[C@H](CC(=O)NCc3ccccc3Cl)CC[C@H]21	-3	/	/	/	/
CCC(=O)Nc1ccc2c(c1)C(=O)N(C)C[C@H](OC)[C@H](C)CN(C(=O)CC1CC1)[C@H](C)CO2	-8	/	/	/	/
C[C@@H]1CN([C@H](C)CO)C(=O)c2cccc(NC(=O)c3nc4ccccc4s3)c2O[C@@H]1CN(C)C(=O)NC1CCCCC1	5	/	/	/	/
CO[C@@H]1CN(C)C(=O)c2cc(NC(=O)c3cnccn3)ccc2OC[C@@H](C)N(CCc2ccccc2)C[C@H]1C	-10	/	/	/	/
O=C(c1ccc2c(c1)OCO2)N1C[C@H]2[C@@H](c3ccccc31)[C@H](CO)N2Cc1ccc2c(c1)OCO2	10	/	/	/	/

Structural class, those above containing a furan ring, fused or not
SMILES	Yeast UUG start	Rce1 inh	PABP FP inh	CSC inhib	eIF4H inh
COC(=O)CCCC1=CC2=CC(=O)C(C)(OC(=O)c3ccco3)C(=O)C2=CO1 (stereo unspecified)	/	i	/	2	/
CN(CC(=O)NC(=O)NCc1ccco1)CC(=O)Nc1ccccc1Cl	/	i	/	-10	/
CC1(OC(=O)c2ccco2)C(=O)C=C2C=C(c3ccc(C#N)cc3)OC=C2C1=O (stereo unspecified)	/	i	/	9	/

Screening data as filed in PubChem BioAssay.
